Arbovirus inh: blocks arbovirus infection; arbovirus infection cell-based antiviral screen; 200,000 compounds, 0.37% hits; inhibition, % at 10 µM;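 active means inhibition from about 30%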;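 further: bluetongue infection of BSR cells; cell survival read as ATP light after 72 h; 0% = infected wells without compound and 100% = uninfected wells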
YopH PTP inh: inhibitors of Yersinia enterocolitica YopH tyrosine phosphatase | fluorescence Ex485/Em525 | inhibition, %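 (about 10 µM by stock and volumes)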 | 140,000 compounds, 0.16% hits | AID 898;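 active means inhibition of 50% or more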;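 further: controls were vehicle for no effect and minimum signal wells for full effect; inactives centre near -20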
Mtb H37Rv: M. tuberculosis H37Rv growth inhibitors, H37Rv strain (AID 1626); M. tuberculosis H37Rv growth inhibition; higher % means a stronger effect; inhibition, % at 10 µM; hits with a dose series show IC50 in µM; 220,000 compounds, 0.95% hits;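 active means confirmed in a dose series; inconclusive means inhibition above 80% but not taken into the dose series; inactive means below 80% or under 30% at every dose of the series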;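 further: bacteria incubated seven days before Alamar blue readout; 0% = bacteria only wells and 100% = bacteria with antibiotic wells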
RecA splice inh: inhibitors of M. tuberculosis RecA intein splicing | cell-free RecA intein splicing, fluorescence | inhibition, %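 (about 9 µM by stock and volumes)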 | 290,000 compounds, 0.75% hits; in the data active means inhibition above about 30%; inconclusive means no clear call, values can overlap the other calls;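 further: 0% = vehicle wells and 100% = reference inhibitor control wells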
Target sequence (P9WHJ3 whole entry, looked up, canonical isoform): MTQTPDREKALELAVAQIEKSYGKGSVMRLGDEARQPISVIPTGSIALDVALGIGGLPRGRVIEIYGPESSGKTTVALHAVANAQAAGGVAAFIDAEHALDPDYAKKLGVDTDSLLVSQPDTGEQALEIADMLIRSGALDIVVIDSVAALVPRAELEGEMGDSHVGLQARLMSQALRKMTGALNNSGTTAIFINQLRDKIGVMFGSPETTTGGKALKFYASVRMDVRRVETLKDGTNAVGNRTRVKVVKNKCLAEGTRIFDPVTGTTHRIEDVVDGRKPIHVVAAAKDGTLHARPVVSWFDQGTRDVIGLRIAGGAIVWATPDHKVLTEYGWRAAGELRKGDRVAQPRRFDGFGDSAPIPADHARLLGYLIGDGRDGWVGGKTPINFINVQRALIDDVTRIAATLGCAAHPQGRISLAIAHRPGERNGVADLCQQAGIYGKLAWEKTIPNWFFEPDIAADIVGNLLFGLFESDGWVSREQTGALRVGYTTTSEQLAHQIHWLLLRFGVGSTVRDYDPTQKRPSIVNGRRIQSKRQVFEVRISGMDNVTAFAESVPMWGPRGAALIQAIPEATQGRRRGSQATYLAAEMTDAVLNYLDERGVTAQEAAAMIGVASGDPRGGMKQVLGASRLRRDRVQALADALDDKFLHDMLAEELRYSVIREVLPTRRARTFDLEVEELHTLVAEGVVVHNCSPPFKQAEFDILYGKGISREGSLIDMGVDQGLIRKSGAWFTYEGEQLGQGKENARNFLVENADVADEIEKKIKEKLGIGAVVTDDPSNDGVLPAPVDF
Mtb bLac sens: beta-lactam sensitization of Mtb H37Rv. inhibition, % at 25 µM. AID 434955. 330,000 compounds, 0.27% hits. M. tuberculosis H37Rv growth with meropenem, percent inhibition; hits of this screen are not shown here;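 active means about 74% or more and at least 40 points above the plate without the antibiotic, then above 30% in a dose series; inconclusive means first-round hits that could not be retested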;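 further: growth measured after seven days incubation then overnight dye step; 0% = bacteria only wells and 100% = bacteria with antibiotic; twin plates without the antibiotic show which effects depend on it; some results filed as inactive read as strong as hits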
Active calls of the source: *; ? = inconclusive; . = not tested or not shown.

| entry | molecule | Arbovirus inh | YopH PTP inh | Mtb H37Rv | RecA splice inh | Mtb bLac sens |
| --- | --- | --- | --- | --- | --- | --- |
| 1 | CC1=C(C(=O)Nc2ccccn2)C(c2cccnc2)n2nnnc2N1 (stereo not given) | 6 | -47 | -11% | 1.1 | -1 |
| 2 | Nc1ccc(/C=C/C(=O)c2cccs2)cc1 | -7 | . | 70% | 1.9 | 2 |
| 3 | O=c1cc(-c2ccc(Cl)c(Cl)c2)[nH][nH]1 | 15 | -6 | -7% | 88* | 1 |
| 4 | CC(C)CCNC(=O)C1CCC(CNc2c(N3CCC(C)CC3)c(=O)c2=O)CC1 (stereo not given) | . | . | -9% | 6.2 | 6 |
| 5 | CC(=O)c1ccc(N2CCN(c3ccc(S(=O)(=O)NCCCN(C)C)cc3[N+](=O)[O-])CC2)cc1 | -4 | . | 9% | 0.2 | -6 |
| 6 | Cc1ccc(S(=O)(=O)NCCCC(=O)N2CCC(C)CC2)cc1 | . | . | . | 1.6 | 11 |
| 7 | Cn1ncc2c(NNC(=O)c3ccc(Cl)cc3Cl)ncnc21 | -20 | 5 | -2% | 5.2 | 0 |
| 8 | CN(C)C(=O)C(=O)c1cccn1-c1cccc(Cl)c1C#N | 1 | . | -6% | -0.4 | 2 |
| 9 | O=C(NCc1ccco1)c1cccc2c1C(=O)N(C1CCCCC1)C2 | -11 | -29 | -4% | -3.0 | 4 |
| 10 | CC1(C)CC(=O)C2=C(C1)OC(N)=C(C#N)C2C1C=CCCC1 (stereo not given) | -5 | -7 | -2% | 8.9 | -3 |
| 11 | CCN1C(=O)[C@H]2[C@@H](c3ccc(-c4ccccc4)cc3)N[C@@](C)(C(=O)OC)[C@H]2C1=O | . | . | . | 0.7 | -10 |
| 12 | Cc1ccc(-c2nnn(CC(=O)N(CC(=O)NC3CCCC3)c3cccc(F)c3)n2)o1 | . | . | . | 1.6 | 0 |
| 13 | COc1cc2c3nc4n(c(=O)c3n(CC(=O)NCC3CCCO3)c2cc1OC)CCS4 (stereo not given) | . | . | . | 0.6 | -2 |
| 14 | CCOC(=O)c1ccc(Cl)c(NC(=O)c2ccc(-c3ccccc3)cc2)c1 | -5 | -11 | 13% | -1.3 | 7 |
| 15 | COc1ccc(CN2C(=O)c3cccnc3C2Nc2cc(Cl)c(OC)cc2OC)cc1 (stereo not given) | -1 | -30 | 6% | 8.7 | 44 |
| 16 | COc1ccc(-c2c(C#N)sc(C(N)=O)c2-c2ccc(OC)cc2)cc1 | . | . | 1% | 0.2 | -16 |
| 17 | CCC1CC2(C)NC(=O)c3c(sc4c3CC(C)(C)OC4)N2C1=O (stereo not given) | 5 | -49 | . | 3.6 | . |
| 18 | COc1ccc(S(=O)(=O)N(C)CC(=O)NCCc2ccccc2)cc1OC | . | . | . | -1.8 | 11 |
| 19 | COc1ccc(NS(=O)(=O)c2cc(NC(=O)c3cccnc3Cl)ccc2N2CCCC2)cc1 | . | . | 2% | 4.9 | 7 |
| 20 | CCN(C(=O)CN1CCCCC1)C1(C)C(=O)c2ccccc2C1=O | -16 | -14 | 1% | -4.5 | 2 |
| 21 | CCC(C)(C)NC(=O)c1ccc2c(c1)N(CC(=O)N1CCCC1)C(=O)C(C)(C)O2 | . | . | . | -1.3 | 0 |
| 22 | COC(=O)Cc1ccc(NC(=S)N2CCCC(C)C2)cc1 (stereo not given) | 5 | -20 | 76% | 9.3 | -2 |
| 23 | Cc1occc1-c1nnc(SCC(=O)NCc2ccco2)n1CC(C)C | -1 | -24 | -9% | -0.1 | -4 |
| 24 | CC1(C)NC(=O)N(CCCCOc2ccc3c(c2)CCC3)C1=O | 7 | -32 | -7% | -1.8 | -3 |
| 25 | COc1ccccc1N(CC(O)Cn1c2ccccc2c2ccccc21)S(=O)(=O)c1ccccc1 (stereo not given) | -6 | -9 | 11% | 4.2 | 0 |
| 26 | Cn1cnnc1Sc1ccc(CN2CCN(C3CCCC3)C(CCO)C2)o1 (stereo not given) | 2 | . | -1% | -0.1 | 2 |
| 27 | O=C(O)COc1cccc2nsnc12 | -3 | -52 | -13% | -3.8 | 1 |
| 28 | O=C(O)COc1ccccc1/C=N/NC(=O)CN1CCN(Cc2ccc(Cl)cc2)CC1 | . | . | -4% | -3.0 | -6 |
| 29 | Cc1c(Cl)cccc1Nc1nc(N)nc(CSC(=S)N2CCOCC2)n1 | 0 | . | 1% | 22 | -5 |
| 30 | CC(=O)Nc1cc2c(cc1C(=O)c1ccc(C)cc1)OCCO2 | -4 | -36 | 10% | -4.7 | -6 |
| 31 | CC(Sc1ccccc1)C(=O)NCC(c1ccco1)N1CCCCC1 (stereo not given) | . | . | . | 0.6 | -4 |
| 32 | CCOc1ccc(N2C(=O)CC(Cc3ccccc3OC)C2=O)cc1 (stereo not given) | . | . | . | -2.0 | -2 |
| 33 | CC(C)(c1ccccc1)c1ccc(OCCn2cnc3ccccc3c2=O)cc1 | -34 | -3 | -3% | 3.7 | 8 |
| 34 | S=C(NCCc1ccccc1)N/N=C/c1c(Cl)cccc1Cl | -4 | -33 | -1% | -4.0 | 9 |
| 35 | COc1ccc(OCc2csc(N)n2)cc1 | 3 | . | -2% | -1.5 | -1 |
| 36 | COc1ccccc1NC(=O)CN1CCN(CC(=O)Nc2ccc(S(N)(=O)=O)cc2)CC1 | . | . | . | 4.4 | -6 |
| 37 | CCCCn1cnc2sc(-c3ccccc3)cc2c1=O | -15 | 0 | 11% | 2.4 | -1 |
| 38 | Cc1cc(N/N=C\c2ccccc2)nc(-c2ccccc2O)n1 | -22 | -4 | 21% | 0.4 | -1 |
| 39 | O=C(NCc1ccncc1)Nc1ccc(Cl)cc1Cl | -1 | 5 | -6% | -2.6 | 0 |
| 40 | CC1(C)Cc2nc(-c3ccccc3)nc(NNC(=O)c3ccco3)c2CO1 | . | . | -2% | -1.0 | -8 |
| 41 | N#CCCNCC1(c2ccccc2)CCCC1 | -2 | -29 | -4% | 2.3 | 2 |
| 42 | Cc1ccc(C(=O)Nc2ccccc2)cc1S(=O)(=O)N1CCN(C)CC1 | . | . | . | 1.9 | -4 |
| 43 | CC(=O)Nc1sc(/C(C#N)=C\c2cccc(Cl)c2)nc1-c1ccc(C)cc1 | -6 | -30 | . | -7.8 | -1 |
| 44 | COc1cc(O)oc1C=Nc1ccc(Cl)cc1Cl | 3 | -22 | -2% | . | -2 |
| 45 | Cc1cccc(N(C)S(=O)(=O)c2c(C)[nH]c(C)c2C(=O)N2CCCC2)c1 | . | . | . | -2.9 | -2 |
| 46 | COc1ccc(C(CNc2ccc(S(=O)(=O)N3CCCC3)cc2[N+](=O)[O-])N2CCCC2)cc1 (stereo not given) | -11 | -5 | 12% | -0.1 | -4 |
| 47 | COc1ccc(N2C(=O)CC(Sc3n[nH]c(-c4cccc(C)c4)n3)C2=O)cc1 (stereo not given) | . | . | 4% | -4.9 | 0 |
| 48 | COc1ccc(-c2nc(N)sc2C2(O)C(=O)Nc3c(Br)cc(F)cc32)cc1OC (stereo not given) | 3 | . | -3% | -0.4 | -1 |
| 49 | O=C(NCCCCc1ccccc1)c1ccc(F)cc1 | . | . | . | 1.4 | 90 |
| 50 | Cc1ccc2c(Cl)c(C(=O)Nc3ccc4c(c3)OCO4)sc2c1 | -1 | -10 | 3% | 1.5 | 1 |

(cont.)
| entry | molecule | Arbovirus inh | YopH PTP inh | Mtb H37Rv | RecA splice inh | Mtb bLac sens |
| --- | --- | --- | --- | --- | --- | --- |
| 51 | O=C(NC1CCCCC1)C(c1ccco1)N(Cc1ccco1)C(=O)c1ccco1 (stereo not given) | 13 | -32 | 2% | 2.2 | -7 |
| 52 | C=CCn1c(SCC(=O)Nc2cc(C)on2)nc2c([nH]c3ccccc32)c1=O | . | . | . | 1.0 | 2 |
| 53 | COc1ccc(-n2nnnc2SCC(=O)N2C(C)CCCC2C)c(OC)c1 (stereo not given) | 19 | -32 | 2% | -0.9 | 2 |
| 54 | O=C(O)c1ccccc1NS(=O)(=O)c1ccc2c(c1)OCCO2 | 1 | . | -2% | 7.1 | -5 |
| 55 | CNC(=S)N1N=C(c2ccccc2)CC1c1ccccc1Cl (stereo not given) | -1 | . | 11% | -5.5 | 3 |
| 56 | O=C(CN1CCN(Cc2ccc(F)cc2Cl)C1=O)NCCc1ccccc1 | 11 | -17 | -1% | -2.3 | -11 |
| 57 | COc1ccc(CNCC(O)(c2ccccc2)c2ccccc2)cc1OC | 2 | . | 3% | 1.6 | -3 |
| 58 | C=CCn1c(SCn2nnc3ccccc3c2=O)nnc1C1CCCCC1 | 16 | -28 | 3% | -4.1 | -22 |
| 59 | C/C(=N/NC(=O)c1ccccn1)c1ccco1 | -6 | -48 | 1% | 2.1 | 87 |
| 60 | O=C(NC(=O)N1CCN(C(c2ccccc2)c2ccccc2)CC1)c1ccccc1 | . | . | -2% | 4.5 | 4 |
| 61 | COC(=O)c1ccc(CN(c2ccccc2Cl)S(C)(=O)=O)cc1 | -1 | . | 4% | -4.0 | 0 |
| 62 | CCc1ccc(-c2cc(C)no2)cc1S(=O)(=O)N1CCCN(Cc2ccc(F)cc2)C1 | . | . | . | 0.4 | 8 |
| 63 | Cc1ccc(N(C(=O)c2ccc(S(=O)(=O)N3CCOCC3)cc2)C2C=CS(=O)(=O)C2)cc1 (stereo not given) | 2 | -17 | -1% | 6.6 | -3 |
| 64 | OCCC1CN(Cc2ccccn2)CCN1C1CCCC1 (stereo not given) | -2 | . | 7% | . | -7 |
| 65 | COc1ccc2nc3cc(Cl)ccc3c(C#N)c2c1 | . | . | 33% | -16 | 36 |
| 66 | CC(=O)Nc1ccc(Nc2nnc(-c3ccc(C)c(S(=O)(=O)NCCO)c3)c3ccccc23)cc1 | . | . | . | -7.6 | -3 |
| 67 | Nc1ccc(Br)c2c1C(=O)c1ccccc1C2=O | -17 | -162 | -2% | 9.1 | 9 |
| 68 | CCCc1cc(=O)[nH]c(SCC(=O)c2cc(C)n(CC(F)(F)F)c2C)n1 | 10 | . | -1% | 1.7 | -12 |
| 69 | Cn1nc(-c2ccccc2F)c2cc(C(=O)N3CCN(C(=O)c4ccco4)CC3)sc21 | . | -57 | -1% | 0.0 | ? |

Molecules shown so far with an aryl methoxy group:
| entry | molecule | Arbovirus inh | YopH PTP inh | Mtb H37Rv | RecA splice inh | Mtb bLac sens |
| --- | --- | --- | --- | --- | --- | --- |
| 13 | COc1cc2c3nc4n(c(=O)c3n(CC(=O)NCC3CCCO3)c2cc1OC)CCS4 (stereo not given) | . | . | . | 0.6 | -2 |
| 15 | COc1ccc(CN2C(=O)c3cccnc3C2Nc2cc(Cl)c(OC)cc2OC)cc1 (stereo not given) | -1 | -30 | 6% | 8.7 | 44 |
| 16 | COc1ccc(-c2c(C#N)sc(C(N)=O)c2-c2ccc(OC)cc2)cc1 | . | . | 1% | 0.2 | -16 |
| 18 | COc1ccc(S(=O)(=O)N(C)CC(=O)NCCc2ccccc2)cc1OC | . | . | . | -1.8 | 11 |
| 19 | COc1ccc(NS(=O)(=O)c2cc(NC(=O)c3cccnc3Cl)ccc2N2CCCC2)cc1 | . | . | 2% | 4.9 | 7 |
| 25 | COc1ccccc1N(CC(O)Cn1c2ccccc2c2ccccc21)S(=O)(=O)c1ccccc1 (stereo not given) | -6 | -9 | 11% | 4.2 | 0 |
| 32 | CCOc1ccc(N2C(=O)CC(Cc3ccccc3OC)C2=O)cc1 (stereo not given) | . | . | . | -2.0 | -2 |
| 35 | COc1ccc(OCc2csc(N)n2)cc1 | 3 | . | -2% | -1.5 | -1 |
| 36 | COc1ccccc1NC(=O)CN1CCN(CC(=O)Nc2ccc(S(N)(=O)=O)cc2)CC1 | . | . | . | 4.4 | -6 |
| 44 | COc1cc(O)oc1C=Nc1ccc(Cl)cc1Cl | 3 | -22 | -2% | . | -2 |
| 46 | COc1ccc(C(CNc2ccc(S(=O)(=O)N3CCCC3)cc2[N+](=O)[O-])N2CCCC2)cc1 (stereo not given) | -11 | -5 | 12% | -0.1 | -4 |
| 47 | COc1ccc(N2C(=O)CC(Sc3n[nH]c(-c4cccc(C)c4)n3)C2=O)cc1 (stereo not given) | . | . | 4% | -4.9 | 0 |
| 48 | COc1ccc(-c2nc(N)sc2C2(O)C(=O)Nc3c(Br)cc(F)cc32)cc1OC (stereo not given) | 3 | . | -3% | -0.4 | -1 |
| 53 | COc1ccc(-n2nnnc2SCC(=O)N2C(C)CCCC2C)c(OC)c1 (stereo not given) | 19 | -32 | 2% | -0.9 | 2 |
| 57 | COc1ccc(CNCC(O)(c2ccccc2)c2ccccc2)cc1OC | 2 | . | 3% | 1.6 | -3 |
| 65 | COc1ccc2nc3cc(Cl)ccc3c(C#N)c2c1 | . | . | 33% | -16 | 36 |

Some of the entries above in a different format.
(5) CC(=O)c1ccc(N2CCN(c3ccc(S(=O)(=O)NCCCN(C)C)cc3[N+](=O)[O-])CC2)cc1
  Arbovirus inh: -4 | YopH PTP inh: . | Mtb H37Rv: 9% | RecA splice inh: 0.2 | Mtb bLac sens: -6

(6) Cc1ccc(S(=O)(=O)NCCCC(=O)N2CCC(C)CC2)cc1
  Arbovirus inh: . | YopH PTP inh: . | Mtb H37Rv: . | RecA splice inh: 1.6 | Mtb bLac sens: 11

Assay outcomes as filed in PubChem BioAssay.

Some of the compounds tested; count on the stated rates, not on these rows.
